Screens: PubChem BioAssay, ICCB-Longwood Screening Facility, Harvard Medical School
Polio RdRp inh = poliovirus RNA polymerase inhibition | P03300 | poliovirus polymerase elongation, fluorescence polarization; active compounds read low | % elongation, % (compound at 16.7 µg/mL) | 150,000 tested, 0.66% active; in the data active = % elongation below about 90%; also: some results filed as inactive read as strong as hits
Target sequence (P03300 1749-2209 limits assumed): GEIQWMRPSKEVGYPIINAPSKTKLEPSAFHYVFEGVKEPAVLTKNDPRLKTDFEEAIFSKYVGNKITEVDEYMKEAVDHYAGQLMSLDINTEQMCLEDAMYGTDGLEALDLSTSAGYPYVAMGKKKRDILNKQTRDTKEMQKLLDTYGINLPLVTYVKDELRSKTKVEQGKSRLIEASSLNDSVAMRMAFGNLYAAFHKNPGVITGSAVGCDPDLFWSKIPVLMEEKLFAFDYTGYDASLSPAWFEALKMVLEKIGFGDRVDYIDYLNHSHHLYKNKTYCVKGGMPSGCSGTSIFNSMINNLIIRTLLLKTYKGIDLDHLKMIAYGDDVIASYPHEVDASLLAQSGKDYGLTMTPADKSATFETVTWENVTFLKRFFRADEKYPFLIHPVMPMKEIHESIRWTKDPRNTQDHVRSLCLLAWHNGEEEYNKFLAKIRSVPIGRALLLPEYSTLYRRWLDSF
Polio RdRp inh intensity = further read-out of Polio RdRp inh, marked with its call; % elongation; measured here: total intensity read-out; formula for this scale not given here;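 total fluorescence in place of polarization; lower means less elongation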
* hit, by the source's call.

The first 15 records, ahead of the listing:
[1] CCc1nc(-c2ccc(C)c(S(=O)(=O)N3CCN(c4ccc(C(C)=O)cc4)CC3)c2)no1
[2] CCOc1ccc(NC(=O)Cn2cc(C(=O)c3ccc(OC)cc3)c(=O)c3cc4c(cc32)OCO4)cc1
[3] CC(=O)N1c2ccc(S(=O)(=O)NCC3CCC(C(=O)Nc4ccc(F)cc4)CC3)cc2CC1C (stereo unspecified)
[4] COCCN(Cc1ccco1)C(=O)Cn1ncc2c([nH]c3ccccc32)c1=O
[5] Clc1ccc(CNc2cc(-c3ccccc3)nc3nncn23)cc1
[6] COc1cccc(NC(=O)c2sc3nc(C)c(C(=O)Nc4ccc(C)cc4C)c(-c4ccco4)c3c2N)c1
[7] CCCN(CCC)CCCNC(=O)Cn1cc2c(n1)-c1c(oc(C(=O)N3CCCC3)c1C)CC2
assay / compound,1,2,3,4,5,6,7
Polio RdRp inh,95,104,104,96,104,110,106
Polio RdRp inh intensity,100,108,98,100,98,114,109

[8] CN(C)c1ccc(/C=C/c2nc(-c3ccccc3O)n(-c3ccccc3)n2)cc1
[9] COc1ccc(NC(=O)CCc2nc(C3=CCN(Cc4cccc(Cl)c4)CC3)no2)c(OC)c1
[10] Cc1cc2c(cc1S(=O)(=O)NCc1ccccc1Cl)OCCN2C
[11] CCOC(=O)C1CCN(c2nc3c(S(=O)(=O)c4ccc(C)c(C)c4)nnn3c3ccc(Cl)cc23)CC1
[12] Cn1c(SCC(=O)Nc2nc3ccccc3s2)ncc(C(=O)Nc2ccccc2)c1=O
[13] COc1ccc(NC(=O)Cn2cc(C(=O)C3CCCCC3)c3ccccc32)cc1
[14] COc1ccc(NC(=O)C2CCCN(c3ncnc4c3nc3n4CCCCC3)C2)c(OC)c1 (stereo unspecified)
assay / compound,8,9,10,11,12,13,14
Polio RdRp inh,104,99,111,107,102,108,112
Polio RdRp inh intensity,105,96,103,101,107,111,108

[15] O=C(CSc1nnc2[nH]c(=O)cc(-c3ccccc3)n12)Nc1ccc(OC(F)(F)F)cc1
assay / compound,15
Polio RdRp inh,111
Polio RdRp inh intensity,110

This part in full, from the start:
[1] CCc1nc(-c2ccc(C)c(S(=O)(=O)N3CCN(c4ccc(C(C)=O)cc4)CC3)c2)no1
[2] CCOc1ccc(NC(=O)Cn2cc(C(=O)c3ccc(OC)cc3)c(=O)c3cc4c(cc32)OCO4)cc1
[3] CC(=O)N1c2ccc(S(=O)(=O)NCC3CCC(C(=O)Nc4ccc(F)cc4)CC3)cc2CC1C (stereo unspecified)
[4] COCCN(Cc1ccco1)C(=O)Cn1ncc2c([nH]c3ccccc32)c1=O
[5] Clc1ccc(CNc2cc(-c3ccccc3)nc3nncn23)cc1
assay / compound,1,2,3,4,5
Polio RdRp inh,95,104,104,96,104
Polio RdRp inh intensity,100,108,98,100,98

[6] COc1cccc(NC(=O)c2sc3nc(C)c(C(=O)Nc4ccc(C)cc4C)c(-c4ccco4)c3c2N)c1
[7] CCCN(CCC)CCCNC(=O)Cn1cc2c(n1)-c1c(oc(C(=O)N3CCCC3)c1C)CC2
[8] CN(C)c1ccc(/C=C/c2nc(-c3ccccc3O)n(-c3ccccc3)n2)cc1
[9] COc1ccc(NC(=O)CCc2nc(C3=CCN(Cc4cccc(Cl)c4)CC3)no2)c(OC)c1
[10] Cc1cc2c(cc1S(=O)(=O)NCc1ccccc1Cl)OCCN2C
assay / compound,6,7,8,9,10
Polio RdRp inh,110,106,104,99,111
Polio RdRp inh intensity,114,109,105,96,103

[11] CCOC(=O)C1CCN(c2nc3c(S(=O)(=O)c4ccc(C)c(C)c4)nnn3c3ccc(Cl)cc23)CC1
[12] Cn1c(SCC(=O)Nc2nc3ccccc3s2)ncc(C(=O)Nc2ccccc2)c1=O
[13] COc1ccc(NC(=O)Cn2cc(C(=O)C3CCCCC3)c3ccccc32)cc1
[14] COc1ccc(NC(=O)C2CCCN(c3ncnc4c3nc3n4CCCCC3)C2)c(OC)c1 (stereo unspecified)
[15] O=C(CSc1nnc2[nH]c(=O)cc(-c3ccccc3)n12)Nc1ccc(OC(F)(F)F)cc1
assay / compound,11,12,13,14,15
Polio RdRp inh,107,102,108,112,111
Polio RdRp inh intensity,101,107,111,108,110

[16] O=C1C(=O)N(C2CCN(C(=O)c3ccccc3F)CC2)CCN1Cc1ccc(F)cc1
[17] CCc1ccc(N(CC)C(=O)c2ccc3c(=O)n4c(nc3c2)CCCCC4)cc1
[18] COc1ccc(-c2noc(-c3ccc(NCCc4ccccc4)c([N+](=O)[O-])c3)n2)cc1OC
[19] N#Cc1ccccc1NC(=O)CSc1ncn[nH]1
[20] Cc1ccccc1CNCCSc1nnnn1C
assay / compound,16,17,18,19,20
Polio RdRp inh,111,105,111,101,107
Polio RdRp inh intensity,110,106,117,101,111

[21] Cc1cccc(NC(=O)Cn2cc(C(=O)C3CCCCC3)c3ccccc32)c1
[22] CCOc1cccc(C(=O)Nc2ccc(S(=O)(=O)N(Cc3ccccc3)c3ccccc3)cc2)c1
[23] Cc1ccc(-c2csc(-c3c(N)c(C(=O)c4ccc5c(c4)OCO5)n4ccccc34)n2)cc1
[24] COc1ccc(NC(=O)CCc2c(C)nc3c(-c4ccccc4)c(C)nn3c2C)cc1Cl
[25] CCOc1ccccc1CNC(=O)c1ccc(Cn2c(SCc3ccccc3)nc3cccnc32)cc1
assay / compound,21,22,23,24,25
Polio RdRp inh,109,104,111,109,110
Polio RdRp inh intensity,106,102,109,111,113

[26] CCOc1ccccc1NC(=O)c1ccc2c(Cl)c3c(nc2c1)CCC3
[27] COC(=O)c1c(NC(=O)CS(=O)(=O)c2ccc(C)cc2)sc2c1CCCC2
[28] O=C(Nc1cccc(Br)c1)N1CCC(CN2CCCCCC2)CC1
[29] COc1ccc(NC(=O)c2ccc3[nH]c(C)cc(=O)c3c2)cc1
[30] Cc1ccc(NC(=O)CSc2nc3ccc(NC(=O)CCc4ccccc4)cc3s2)cc1
assay / compound,26,27,28,29,30
Polio RdRp inh,105,105,107,106,110
Polio RdRp inh intensity,106,106,110,108,107

[31] Cc1ccc(-c2c(CN3CCN(c4cc(C)ccc4C)CC3)csc2C)cc1
[32] CCOc1ccc(NC(=O)c2ccc3[nH]c(C)cc(=O)c3c2)cc1
[33] CCc1ccc(-c2cn3nc(CC)sc3n2)cc1
[34] Cn1c2ccccc2c2c(C(=O)N3CCN(c4cccc(C(F)(F)F)c4)CC3)cn(C3CCCCC3)c(=O)c21
[35] CCOc1ccc(-n2c(=O)c3c(C)c(C)sc3n(CC(=O)N(CC)Cc3ccccc3)c2=O)cc1
assay / compound,31,32,33,34,35
Polio RdRp inh,105,98,108,115,107
Polio RdRp inh intensity,98,104,109,117,110

[36] CCOCCCNC(=O)C1CCCN(c2ncnc3onc(C)c23)C1 (stereo unspecified)
[37] CCOc1cc(C2c3c(-c4cc(C)ccc4O)n[nH]c3C(=O)N2CCCOC(C)C)ccc1O (stereo unspecified)
[38] CCS(=O)(=O)N1CCc2cc(C(=O)Nc3cc(C)cc(C)c3)ccc21
[39] Cc1ccc(C)c2sc(N3CCN(C(=O)c4ccco4)CC3)nc12
[40] CCN1C(=O)c2ccccc2Sc2ccc(NC(=O)Cc3ccc(OC)c(OC)c3)cc21
assay / compound,36,37,38,39,40
Polio RdRp inh,104,98,109,110,102
Polio RdRp inh intensity,110,92,108,93,109

[41] CCCCN(CC)C(=O)CSc1nc2n[nH]c(C)c2c(=N)n1-c1cccc(OC)c1
[42] CCOC(=O)c1c(C)oc2ncnc(Nc3cc(Cl)ccc3OC)c12
[43] Cc1nnc(NC(=O)CSc2nc3c([nH]c4ccccc43)c(=O)n2-c2cccc(Cl)c2)s1
[44] Clc1ccc(Nc2nc(-c3ccccc3)c3cc(Cl)ccc3n2)cc1
[45] O=C(Nc1cc2ccc(O)cc2oc1=O)c1ccc(F)cc1
assay / compound,41,42,43,44,45
Polio RdRp inh,96,111,118,103,101
Polio RdRp inh intensity,96,110,113,106,104

[46] COc1ccc2c(C)c(CCC(=O)NCCc3ccc(Cl)cc3)c(=O)oc2c1
[47] CCN(CC)S(=O)(=O)c1ccc2c(c1)N(CC(=O)NCc1ccccc1)C(=O)CS2
[48] Cc1c(C(=O)NCCc2ccc(Cl)cc2)cccc1-n1cnc2cccnc21
[49] Cc1ccccc1-c1nc(CS(=O)(=O)CC(=O)Nc2cc(Cl)cc(Cl)c2)c(C)o1
[50] CCN(CCCNC(=O)c1cc(Nc2ccc(OC)cc2OC)nc2ccccc12)c1cccc(C)c1
assay / compound,46,47,48,49,50
Polio RdRp inh,101,101,108,103,108
Polio RdRp inh intensity,108,101,108,99,106

[51] Cc1ccccc1Cn1c2ccccc2c2cnn(CC(=O)NC(C)CCc3ccccc3)c(=O)c21 (stereo unspecified)
[52] COc1ccc(S(=O)(=O)c2c(SC)nn(CC(=O)Nc3cccc(C)c3C)c2N)cc1
[53] CCn1c(=O)c2sccc2n2c(CCCC(=O)Nc3ccc(Oc4ccccc4)cc3)nnc12
[54] O=C(NCCc1ccccc1)c1cnc2sc(N3CCCC3)nn2c1=O
[55] COc1ccc(CCn2c(=O)c3cccnc3n(CC(=O)Nc3cccc(C)c3)c2=O)cc1OC
assay / compound,51,52,53,54,55
Polio RdRp inh,106,109,121,106,104
Polio RdRp inh intensity,107,110,107,101,111

[56] COc1ccc(C2C=C(c3ccccc3)Nc3nc(NC(=O)/C=C/c4ccccc4Cl)nn32)cc1 (stereo unspecified)
[57] COc1ccc(CCNC(=O)CCCCn2c(=O)c3ccccc3n(CC(=O)Nc3ccc(C)cc3C)c2=O)cc1OC
[58] COC(=O)c1ccccc1NC(=O)CSc1nnc2cc(C)c3cc(C)cc(C)c3n12
[59] COc1ccc(-c2cc(C(=O)OC(C)C(=O)c3ccccc3)c3cccc(Cl)c3n2)cc1 (stereo unspecified)
[60] O=C(CN1c2ccccc2S(=O)(=O)c2ccccc21)Nc1cccc(C(F)(F)F)c1
assay / compound,56,57,58,59,60
Polio RdRp inh,111,110,102,107,102
Polio RdRp inh intensity,101,112,105,110,111

[61] CC(=O)N1CCOc2cc(S(=O)(=O)NCc3ccccc3Cl)c(C)cc21
[62] COc1ccc(CNS(=O)(=O)c2ccc(N3CCCCS3(=O)=O)cc2)cc1
[63] Cc1cccc(-n2c(SCC(N)=O)nc3c(oc4ccccc43)c2=O)c1
[64] CCC1CCCCN1CCCNC(=O)c1c(O)nc2cc(C)ccn2c1=O (stereo unspecified)
[65] COCCNC(=O)c1nn(-c2ccc(C)cc2)c(=O)n(C)c1=O
assay / compound,61,62,63,64,65
Polio RdRp inh,102,99,107,105,101
Polio RdRp inh intensity,104,107,113,111,106

[66] COc1cc(Cl)c(C)cc1NC(=O)c1cc(S(=O)(=O)N2CCCC2)ccc1F
[67] Clc1cccc(CNCCCSc2nnnn2-c2ccccc2)c1
[68] CCOC(=O)N1CCc2c(sc3c2c(=O)n(CCc2ccccc2)c(=O)n3Cc2ccc(F)cc2)C1
[69] Cc1ccccc1C(=O)Nc1nnc(S(=O)(=O)N(C)c2ccc(Cl)cc2)s1
[70] Cc1ccc(C(=O)N(c2ccc(C)cc2)S(=O)(=O)c2ccc(Cl)cc2)cc1
assay / compound,66,67,68,69,70
Polio RdRp inh,101,105,103,105,95
Polio RdRp inh intensity,109,105,106,96,96

[71] COc1ccc(C)cc1NC(=O)COc1cc(=O)n(C)c2ccccc12
[72] CCOC(=O)c1c(NC(=O)c2cc(-c3ccc(OC)c(OC)c3)on2)sc2c1CCCC2
[73] O=C(NCCc1ccc(Cl)cc1)C(=O)NCC(c1cccs1)S(=O)(=O)c1ccccc1 (stereo unspecified)
[74] COc1ccc(CNC(=O)c2c(Nc3ccccc3C)sc(C(=O)c3ccccc3)c2N)cc1
[75] CCCCCOc1c(Cl)cc(C(=O)N(Cc2ccc(C)o2)C2CCS(=O)(=O)C2)cc1Cl (stereo unspecified)
assay / compound,71,72,73,74,75
Polio RdRp inh,109,98,107,108,114
Polio RdRp inh intensity,112,102,104,109,113

[76] CCc1cccc(NC(=O)CSc2ncc3c(n2)-c2ccc(Cl)cc2N(Cc2ccccc2)S3(=O)=O)c1
[77] Cc1cc(NC(=O)c2cc(-c3ccc(F)cc3)on2)nn1Cc1ccc(Cl)cc1
[78] O=c1oc2ccc(F)cc2cc1-c1nc(-c2cccs2)no1
[79] Cc1ccccc1CNC(=O)c1oc2c(c1C)-c1[nH]ncc1CC2
[80] COC(=O)c1ccccc1NC(=O)c1cc(C)nc2c1c(C)nn2-c1ccc(C)cc1
assay / compound,76,77,78,79,80
Polio RdRp inh,106,102,119,105,111
Polio RdRp inh intensity,107,108,122,110,112

[81] O=C(Nc1ccc(F)c(F)c1)c1cc(S(=O)(=O)NC2CCCC2)ccc1F
[82] Cc1ccccc1C(=O)NC(=O)Nc1ccc(-n2nc(C(F)(F)F)cc2C(F)(F)F)cc1
[83] CCN(CC)CCCNC(=O)c1cn(C)c2ccc(S(=O)(=O)N(C)C3CCCCC3)cc2c1=O
[84] COc1ccc(N(C(=O)COc2ccc(Br)cc2)S(=O)(=O)c2ccc(C)cc2)cc1
[85] COc1ccc(N2C(=O)C(CC(=O)Nc3ccc(Cl)cc3)N(Cc3ccc4c(c3)OCO4)C2=O)cc1 (stereo unspecified)
assay / compound,81,82,83,84,85
Polio RdRp inh,95,105,105,96,107
Polio RdRp inh intensity,95,110,108,98,107

[86] COc1ccc(CC(=O)N2CCc3cc(OC)c(OC)cc3C2COc2ccc(OC)cc2)cc1 (stereo unspecified)
[87] CN1CCN(C(c2cccc(Br)c2)c2sc3nc(-c4ccco4)nn3c2O)CC1 (stereo unspecified)
[88] NS(=O)(=O)c1ccc2nc(NC(=O)COc3ccccc3)sc2c1
[89] O=C(Nc1c(C(=O)Nc2ccccc2F)oc2ccccc12)c1cc2ccccc2o1
[90] CCc1ccc(NC(=O)CC2C(=O)N(c3ccc(Cl)cc3)C(=O)N2C2CCCC2)cc1 (stereo unspecified)
[91] Cc1ccc(S(=O)(=O)N(CC(O)Cn2c3ccccc3c3ccccc32)c2cccc(C(N)=O)c2)cc1 (stereo unspecified)
assay / compound,86,87,88,89,90,91
Polio RdRp inh,111,101,110,102,114,103
Polio RdRp inh intensity,103,102,112,105,103,107

An excerpt; the hit share may differ from the screen's.
